Menin-MLL FL inh: inhibitors of human menin-MLL interaction, wild-type MLL peptide | FP activity change, % at 61.4 µM | Fluorescence polarization, fluorescein-MLL peptide displacement from menin | AID 1766 | 290,000 tested, under 10 active; inconclusive = falling polarisation curve, or a change in total fluorescence; inactive = total fluorescence flat and polarisation flat or rising; no compound was filed as active; the % refers to the polarisation; negative = inhibition;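 note: % of control where 0% means no effect; inhibitors lower the polarisation; unlabelled MLL peptide was the positive control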
ClpP mod: qHTS Assay for Activators of ClpP; ATP-dependent Clp protease proteolytic subunit (Bacillus subtilis (strain 168)), P80244; hit rate 1.9% among 340,000; purified B. subtilis ClpP, FRET peptide cleavage, 20 min; Potency, µM (top dose mostly 57.5 µM), inactives show at the highest dose activity change, negative = active; AID 651965, 2013; active = well fitted falling curve with a large enough effect; inconclusive = small, poorly fitted or top-dose-only effect; inactive = no such curve, though single readings can be large or run the other way; note: potency is the fitted concentration of half-maximal effect; the source files actives as falling curves though it sought activators and does not explain the sign; nearly all actives have a fitted effect of over 65% in size; many hits overshoot -100%
Target sequence (P80244 whole entry, looked up): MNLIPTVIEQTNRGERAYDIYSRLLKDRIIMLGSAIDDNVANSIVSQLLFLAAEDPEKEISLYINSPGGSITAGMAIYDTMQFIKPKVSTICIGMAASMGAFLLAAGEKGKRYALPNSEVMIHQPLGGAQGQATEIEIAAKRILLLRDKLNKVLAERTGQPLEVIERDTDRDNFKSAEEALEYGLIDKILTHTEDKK
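ClpP 10 microg/mL final, pH 8 Tris/KCl buffer with BSA, glycerol, Tween-20; compound pinned in; FRET-FV substrate; RT 20 min; Ex320/Em430; ΔFRET vs ADEP 5.8 microM, DMSO, no enzyme.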
gsp antag: gsp mutant antagonism; AID 624288; gsp-mutant cells, cAMP HTRF, 30 min; control for the full effect not named in the record; Potency, µM (highest dose often 76.9 µM), for inactives: at the highest dose activity change, negative = inhibition, most hits filed as inhibitors; hit rate 0.4% among 340,000; active = falling curve of any shape with a large fitted effect; inconclusive = falling curve, mostly with a smaller effect; inactive = flat or rising curve; cell line not stated here;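 note: intracellular cAMP measured with PDE inhibitor Ro 20-1724 present during compound exposure; potency is the fitted concentration of half-maximal effect; % is set by controls: 0 for no effect and ±100 for the full control effect; nearly all actives have a fitted effect of over 65% in size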
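Cells in G418 medium, seeded 16-24 h, 37C; buffer exchange to DPBS + 1 mM CaCl2, 0.5 mM MgCl2, 0.05% BSA; cpds in DMSO + […] (300 uM stock), 30 min 37C; HTRF cAMP detection.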
TRPV1 potentiator: enhances activation of the human vanilloid receptor TRPV1. potentiation, % at 8.33 µM. AID 540277. TRPV1-expressing cells, Fluo-8 calcium influx, capsaicin EC20 potentiation; host cell line not named in the record; control for the full effect not named in the record. Q8NER1. hit rate 0.02% among 320,000; active means potentiation above 80%; inconclusive means 30% to 80%; inactive means below 30%; note: 0% is about no effect
Target sequence (Q8NER1 whole entry, looked up): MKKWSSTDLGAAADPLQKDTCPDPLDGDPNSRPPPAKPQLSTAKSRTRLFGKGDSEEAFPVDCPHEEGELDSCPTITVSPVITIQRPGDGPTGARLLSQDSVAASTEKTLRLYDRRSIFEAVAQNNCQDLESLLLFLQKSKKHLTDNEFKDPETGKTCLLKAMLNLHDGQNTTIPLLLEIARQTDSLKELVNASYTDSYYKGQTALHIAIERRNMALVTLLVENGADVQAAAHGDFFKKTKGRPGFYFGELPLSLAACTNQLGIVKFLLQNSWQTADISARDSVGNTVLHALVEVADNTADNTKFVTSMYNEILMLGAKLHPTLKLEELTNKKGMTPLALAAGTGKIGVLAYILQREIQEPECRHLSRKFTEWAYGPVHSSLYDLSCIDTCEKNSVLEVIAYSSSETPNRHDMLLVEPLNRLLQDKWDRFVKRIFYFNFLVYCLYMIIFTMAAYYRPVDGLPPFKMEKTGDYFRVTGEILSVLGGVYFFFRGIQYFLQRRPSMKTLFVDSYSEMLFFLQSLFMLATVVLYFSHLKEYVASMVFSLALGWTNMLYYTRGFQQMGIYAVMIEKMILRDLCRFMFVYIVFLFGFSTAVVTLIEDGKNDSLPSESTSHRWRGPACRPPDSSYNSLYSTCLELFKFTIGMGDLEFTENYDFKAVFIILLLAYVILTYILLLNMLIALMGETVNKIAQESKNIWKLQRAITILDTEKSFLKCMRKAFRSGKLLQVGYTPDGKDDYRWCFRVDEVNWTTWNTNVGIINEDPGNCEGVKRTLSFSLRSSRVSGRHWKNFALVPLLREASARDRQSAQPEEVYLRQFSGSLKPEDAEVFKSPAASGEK
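Fluo-8 calcium influx in TRPV1-expressing cells, kinetic read (ex 480/em 520 nm). Compound added and read 3 min for agonist activity, followed by capsaicin at EC20 final and 2 min further read for enhancement.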
Sfp inh: Sfp phosphopantetheinyl transferase inhibition; Q9F4F7; Biochemical Sfp PPTase activity, qHTS; Potency, µM, for the others: max response, negative = inhibition, most hits filed as inhibitors; hit rate 3.5% among 310,000; AID 1490; active = well fitted inhibition curve with a large enough effect; inconclusive = small, poorly fitted or top-dose-only effect, or another doubt; inactive = no such curve, though single readings can be large or run the other way;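 note: the enzyme is Sfp with the accession as filed and its product quenches rhodamine fluorescence; potency is the fitted concentration of half-maximal effect; 0% = enzyme reaction without inhibitor and -100% = no enzyme wells; top concentration of the series not given in the record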
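After 15 min at room temperature with compound, 15 nM Sfp received 5 uM rhodamine-CoA plus 12.5 uM BHQ-2-ybbR (50 mM Hepes pH 7.6, 10 mM MgCl2). Rate came from the fluorescence difference over 30 min, ex 525/em 598 nm.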
gsp agonist: gsp mutant agonism; gsp mutant cells, cAMP HTRF, 30 min; control for the full effect not named in the record; Potency, µM (top dose mostly 76.9 µM), for the others: top-dose activation (cAMP increase), usual class: activators; hit rate 0.13% among 340,000; AID 624287; active = well fitted activation curve with a large enough effect; inconclusive = small, poorly fitted or top-dose-only effect, or another doubt; inactive = no such curve, though single readings can be large or run the other way; cell line not stated here;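 note: phosphodiesterase inhibitor Ro 20-1724 added with compounds to block cAMP breakdown; potency is the fitted concentration of half-maximal effect; nearly all actives have a fitted effect of over 60% in size; about a fifth of the inactives were tested at one dose only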
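Cells stably selected in G418 were plated at 2000/well, grown 16-24 hr, then given compounds in DMSO with the PDE inhibitor […] (300 uM solution added) for 30 min at 37C; cAMP was read by HTRF.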
CtBP-E1A inh: blocks the CtBP interaction with E1A | activity change, % (no concentration beside the values) | AlphaScreen GST-E1A/His-CtBP binding, 1536-well; hits give low values; control for the full effect not named in the record | hit rate 0.49% among 340,000; in the data active means activity change below about -65%; inconclusive means about -30% to -65%; inactive means above about -30%; note: % is set by controls: 0 for no effect and ±100 for the full control effect; compound concentration not given in the record
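AlphaScreen with 125 nM GST-E1A and 125 nM His-CtBP (5X stocks) in Tris pH 8.0, 300 mM NaCl, BSA, Tween 20, TCEP. Compounds preincubated 2 h at 37 deg C, then glutathione donor/nickel acceptor beads added for 1 h at 37 deg C in dark.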
* hit, by the source's call; ? = inconclusive; · = not tested or not shown; & = joins results of further samples; [ ] = another dose, or the depositor's remark.

SMILES	Menin-MLL FL inh	ClpP mod	gsp antag	TRPV1 potentiator	Sfp inh	gsp agonist	CtBP-E1A inh
O=C(O)c1cccc(-c2ccccc2)c1O	·	·	-3.1%	·	·	?	5.3
CCNC(=S)N/N=C/c1ccccc1[N+](=O)[O-]	2.8	·	·	-9.9	-0.2%	-0.2%[15.4 µM]	-0.5
CC(=O)Nc1cccc(C(=O)NC2CCCc3c2cnn3-c2ccccc2F)c1 (stereo not given)	0.7	·	-1.7%	-14.5	12.4%	-3.5%	4.5
COc1ccccc1/C=N/NC(=O)CC(=O)NCc1cccnc1	3.2	-1.5%	-5.2%	7.7	28.5%	-2.3%[15.4 µM]	-10.7
O=C(CN1CCOCC1)N/N=C/c1ccc(C(=O)O)cc1	-1.2	1.7%	-7.2%	7.6	4.4%	?	12.8
COc1cccc(N2CCN(C(=O)c3oc4ccccc4c3NC(=O)Cc3ccc(OC)c(OC)c3)CC2)c1	·	-13.4%	-15.7%	-2.8	10.4%	2.6%	-28.0
Cc1ccc(N(C)S(=O)(=O)c2cccc(C(=O)Nc3nnc(C4CC4)s3)c2)cc1	2.9	·	-27.6%	-18.6	13.1%	-5.8%	3.0
O=C(Nc1c(Cl)cc(Cl)cc1C(=O)NCCN1CCOCC1)c1cccc([N+](=O)[O-])c1	-3.3	·	-8.3%	2.4	-4.8%	12.6%[15.4 µM]	0.4
C[C@@H]1C(=O)OC[C@H]1NC(=O)OCc1ccccc1	·	-1.2%	-4.6%	-2.0	·	-46.8%[inhibitor]	-4.8
O=C(O)/C=C/C(=O)Nc1ccc(Oc2ccc(NC(=O)/C=C/C(=O)O)cc2)cc1	6.6	·	·	0.5	-12.6%	·	·
CCOC(=O)c1c(-c2ccc(C)o2)csc1NC(=O)CN1CCCCC1	?	·	-33.7%	0.6	7.94µM*	-6.8%[15.4 µM]	3.9
CN=C(NC1CCCCC1)c1ccc([N+](=O)[O-])cc1	?	1.3%	0.4%	5.9	4.1%	-23.5%	·
O=C(Cc1c(F)cccc1Cl)c1ccc(O)cc1O	-17.1	2.1%	-23.7%	-0.2	0.4%	6.5%	4.3
COc1ccc(/C=C/C(=O)Nc2cc(S(=O)(=O)N3CCOCC3)ccc2N2CCCC2)cc1OC	-4.8	·	·	14.0	14.9%	8.9%[15.4 µM]	25.0
CCOCCCN(Cc1cc2cc(C)cc(C)c2[nH]c1=O)C(=O)N(CC)CC	-0.2	-15.3%	8.8%	5.9	17.7%	-28.5%	6.6
CN(C(=O)c1ccc(=O)n(Cc2ccc(Cl)cc2)c1)c1ccccc1	3.0	·	5.2%	0.8	?	-29.1%	4.0
COc1ccccc1C(=O)NCC(=O)NCCC(c1ccccc1)c1ccccc1	·	-8.6%	-25.2%	7.3	·	13.8%	4.5
CN(Cc1ccon1)C(=O)CC1C(=O)NCCN1Cc1cccc(Oc2ccccc2)c1 (stereo not given)	1.0	-3.0%	-2.0%	-1.0	2.5%	4.3%	-7.1
CCn1c(O)c(/C=C2\C=NN=C2c2ccccc2)sc1=S	0.0	1.0%	-13.2%	-8.8	-4.1%	6.9%[15.4 µM]	0.4
COc1ccccc1N(CC(N)=O)S(=O)(=O)c1ccc(C)cc1	2.5	0.5%	4.9%	2.1	13.6%	-1.2%	60.3
COc1cccc(C(=O)N2CCN(C3CCC(c4ccccc4)CC3)CC2)c1OC (stereo not given)	-1.1	0.2%	-4.9%	11.6	-4.8%	-6.2%	-2.8
O=C(OCCN1CCCCC1)c1cc2ccccc2o1	3.1	?	11.2%	14.0	-5.1%	0.0%	3.6
Cc1ccc2c(c1)c1c3n2CCNC3CCC1 (stereo not given)	-1.7	4.8%&3.6%	2.4%&13.5%	-5.0	4.2%	-19.5%	-15.9&-5.5
CCn1c2ccccc2c2n[nH]c(=S)nc21	0.9	2.8%	-5.0%	4.5	50.1µM*	-5.9%	·
O=C(c1ccccc1Cl)N1CCN(Cc2ccc3c(c2)OCO3)CC1	-4.2	1.2%	9.1%	-7.8	-1.0%	-17.0%	4.1
Cc1cccc(-n2ccnc2CN2CCC(CO)(Cc3ccccc3)CC2)c1	0.5	0.4%	4.2%	-16.7	11.3%	-3.6%	8.1
Cc1noc(C)c1C(=O)NCc1ccccc1	3.6	31.6µM*	6.7%	1.9	7.5%	16.1%	-2.5
Cn1c(SCC(=O)N/N=C/c2ccc([N+](=O)[O-])s2)nnc1-c1ccccc1	25.7	-0.4%	?	20.4	-12.1%	2.4%[15.4 µM]	-0.2
CC(=O)Nc1cccc(/C(C)=N/NC(=O)c2ccccc2Cl)c1	-2.0	-2.0%	-7.5%	2.5	19.0%	-6.5%	-0.8
Cc1cccc(NC(=S)NC2CC3CCCC(C2)N3Cc2ccccc2)c1C (stereo not given)	0.8	-3.2%	1.4%	5.8	-18.5%	0.8%	·
O=C(CN1N=C(c2ccc(Cl)cc2)CCC1=O)NCCN1CCc2ccccc2C1	3.0	0.5%	13.3%	-4.8	-10.8%	-24.9%	-6.8
O=C(NNC(=O)c1ccccc1F)c1ccco1	2.5	·	7.4%	4.5	10.4%	-8.5%	-1.5
CCn1c(O)c(N=NC2=NC(=O)CS2)c2cc(C)ccc21	0.6	0.8%	-19.7%	-9.0	-17.3%	-7.9%	-9.9
CC(C)CC(=O)Nc1nc(-c2ccc(S(=O)(=O)N3CCOCC3)cc2)cs1	-2.1	31.6µM*	1.1%	-24.7	-6.7%	-5.3%[15.4 µM]	-6.5
Cn1c(=O)c2c(nc(CN3CCN(c4ccccc4)CC3)n2Cc2c(F)cccc2Cl)n(C)c1=O	2.3	-0.3%	-13.6%	-4.6	5.2%	-7.8%	-3.3
CS(=O)(=O)N1Cc2ccccc2CC1C(=O)O (stereo not given)	1.2	-0.2%	4.0%	20.6	18.0%	7.8%[15.4 µM]	0.9
COc1ccccc1OCC(=O)Nc1ccccc1C(=O)NC1CC1	·	-5.4%	7.0%	-5.4	·	-9.2%	-25.8
Cc1cc(NS(=O)(=O)c2ccc(Br)s2)no1	·	1.6%	-10.1%	·	·	1.5%	8.8
O=C(NCCc1ccccn1)C(F)(F)C(F)(F)C(F)(F)C(F)(F)C(F)(F)C(F)(F)C(F)(F)C(F)F	-1.1	3.2%	0.0%	0.6	24.6%	4.3%	8.1
O=C(Nc1cccc(C(=O)N2CCCC2)c1)C1CCCC1	·	1.0%	9.5%	·	·	·	6.6
Cc1cnc(C)c(N2CCN(Cc3nc(-c4ccccc4)no3)CC2)n1	0.4	-9.3%	-6.5%	-6.2	-4.1%	4.4%	·
CCOc1ccc(C2NCCc3cc(OC)c(OC)cc32)cc1OC (stereo not given)	-0.6	-1.9%	-10.5%	4.6	15.5%	5.9%[15.4 µM]	-20.0
O=C(NCCCc1ccccc1)N1CCOCC1	-0.6	·	0.9%	1.3	18.7%	18.6%	12.8
CN(C(=O)c1ccccc1C(=O)OCC(=O)c1ccc(F)c(F)c1)C1CCCCC1	·	0.7%	-16.2%	-5.2	·	-8.3%	2.1
Cc1c(C(=O)N2CCN(c3ccccc3)CC2)oc2c(F)cccc12	·	-4.0%	1.3%	-14.3	-8.7%	-20.4%	2.3
COc1cc(CNCCSc2nnnn2C)cc(Br)c1OCc1ccccc1F	0.0	-1.6%	-11.4%	-10.6	?	-9.5%	-6.9
Cc1ccc2[nH]cc(C(=O)CN3CCN(C)CC3)c2c1	2.9	-4.1%	20.2%	-7.3	-1.0%	-4.5%	3.9
C[C@H](CO)N1C[C@H](C)[C@@H](CN(C)C(=O)Nc2ccc(N3CCN(C)CC3)cc2)OCc2cnnn2CCCC1=O	·	-3.1%	·	·	·	-37.0%[inhibitor]	0.0

The list goes on, overlapping the part above by 4 compounds.
SMILES	Menin-MLL FL inh	ClpP mod	gsp antag	TRPV1 potentiator	Sfp inh	gsp agonist	CtBP-E1A inh
Cc1c(C(=O)N2CCN(c3ccccc3)CC2)oc2c(F)cccc12	·	-4.0%	1.3%	-14.3	-8.7%	-20.4%	2.3
COc1cc(CNCCSc2nnnn2C)cc(Br)c1OCc1ccccc1F	0.0	-1.6%	-11.4%	-10.6	?	-9.5%	-6.9
Cc1ccc2[nH]cc(C(=O)CN3CCN(C)CC3)c2c1	2.9	-4.1%	20.2%	-7.3	-1.0%	-4.5%	3.9
C[C@H](CO)N1C[C@H](C)[C@@H](CN(C)C(=O)Nc2ccc(N3CCN(C)CC3)cc2)OCc2cnnn2CCCC1=O	·	-3.1%	·	·	·	-37.0%[inhibitor]	0.0
COc1ccc(Nc2nc(N)nc(CSc3nncn3C)n2)cc1	-4.6	0.4%	-0.5%	5.3	4.5%	23.8%	-10.9
Cc1ccc(C(=O)CSc2nc(C)cc(C)c2C(N)=O)cc1	0.1	1.1%	-8.6%	13.4	15.5%	?	51.2
O=C(CCn1nc(-c2ccc(Cl)cc2)ccc1=O)N1CCOCC1	5.2	-9.8%	-0.6%	26.2	-2.1%	-13.8%	-0.6
COc1ccc(N(C(C)=O)S(=O)(=O)c2cccc3cccnc23)cc1	1.3	-1.3%	4.6%	8.4	12.5%	0.7%	3.5
CCOC(=O)C1CCN(C(=O)CCC2CCCC2)CC1	-0.4	-2.8%	1.3%	-26.6	-2.0%	-13.7%	·
C/C=C\C(=O)Nc1cccc(C2=NOC3(C2)C[C@@H](C(N)=O)N(C(=O)CC(c2ccccc2)c2ccccc2)C3)c1 (stereo not given in full)	-2.8	-2.0%	-12.9%	-15.6	-10.4%	·	-11.0
Cn1c2ccccc2c2c(C(=O)NCCCN3CCCC3=O)cn(C3CCCCC3)c(=O)c21	1.8	14.1µM*	-18.6%	-13.9	-4.3%	5.3%	-1.8

Some of these compounds in order of length of the SMILES, ascending:
SMILES	Menin-MLL FL inh	ClpP mod	gsp antag	TRPV1 potentiator	Sfp inh	gsp agonist	CtBP-E1A inh
COc1ccc(N(C(C)=O)S(=O)(=O)c2cccc3cccnc23)cc1	1.3	-1.3%	4.6%	8.4	12.5%	0.7%	3.5
Cn1c2ccccc2c2c(C(=O)NCCCN3CCCC3=O)cn(C3CCCCC3)c(=O)c21	1.8	14.1µM*	-18.6%	-13.9	-4.3%	5.3%	-1.8
C/C=C\C(=O)Nc1cccc(C2=NOC3(C2)C[C@@H](C(N)=O)N(C(=O)CC(c2ccccc2)c2ccccc2)C3)c1 (stereo not given in full)	-2.8	-2.0%	-12.9%	-15.6	-10.4%	·	-11.0
